Beta2AR agonist – human beta-2 adrenergic receptor agonism by FAP; P07550; Am2.2-beta2AR cells, FAP receptor internalization, flow cytometry; reference of the scale not given here; response, % (test concentration not listed); hit rate 0.43% among 340,000; AID 504454;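 active means response above a set limit, near 3 SD of response in nonfluorescent compounds, cut at about 42% in these data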;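 further: stock transfer was 100 nL into about 11 µL; a reference agonist was the positive control; negative values mostly stem from fluorescent compounds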
ALR inh – blocks human ALR sulfhydryl oxidase activity | hit rate 3.8% among 290,000 | purified ALR, DTT oxidation, H2O2 HRP-luminol luminescence | inhibition, % (test concentration not listed) | AID 485317 | P55789;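 active means mean and each replicate at 75% or more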;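 further: stock transfer was 7.5 nL into about 7.5 µL; 0% = neutral wells and 100% = wells with inactivated enzyme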
Target sequence (P55789 whole entry, looked up): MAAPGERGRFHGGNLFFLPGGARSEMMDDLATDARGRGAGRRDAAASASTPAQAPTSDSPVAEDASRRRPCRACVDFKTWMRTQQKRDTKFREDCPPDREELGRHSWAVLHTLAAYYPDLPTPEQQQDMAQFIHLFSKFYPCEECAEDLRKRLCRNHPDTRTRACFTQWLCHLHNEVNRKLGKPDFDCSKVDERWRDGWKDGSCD
HNF4A DNA FP – change in binding of human HNF4 alpha to DNA; HNF4a-FITC DNA binding, fluorescence polarization, 1 h; activity change, % at 10 µM; hit rate 0.3% among 360,000; AID 1224865; in the data active means activity change above about 30%, passing the limit was not always enough;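 further: controls were the assay level and a saturating level of protein; the project sought stronger binding though the title names inhibitors; some compounds called inactive have numbers as strong as hits; positive values seem to mean higher polarization but the record does not say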
Target sequence (P41235 whole entry, looked up): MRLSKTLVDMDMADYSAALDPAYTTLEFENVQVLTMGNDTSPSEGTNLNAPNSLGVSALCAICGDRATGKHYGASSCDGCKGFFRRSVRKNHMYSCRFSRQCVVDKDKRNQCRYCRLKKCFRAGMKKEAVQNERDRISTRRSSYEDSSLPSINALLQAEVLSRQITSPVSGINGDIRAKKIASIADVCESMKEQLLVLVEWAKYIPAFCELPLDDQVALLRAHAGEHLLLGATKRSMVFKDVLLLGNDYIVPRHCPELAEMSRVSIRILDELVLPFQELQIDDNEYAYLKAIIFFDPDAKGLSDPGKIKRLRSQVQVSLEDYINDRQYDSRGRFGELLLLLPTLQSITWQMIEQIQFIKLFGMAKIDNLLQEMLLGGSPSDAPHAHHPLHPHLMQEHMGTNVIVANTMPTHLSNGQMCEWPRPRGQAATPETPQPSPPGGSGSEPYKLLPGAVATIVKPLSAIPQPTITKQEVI
FGF22 binding – shifts melting point of recombinant human FGF22; calls only at 9.99 µM; Q9HCT0; hit rate 1.5% among 340,000; recombinant FGF22 thermal shift, SYPRO orange fluorescence; percent of sucrose octasulfate shift, DMSO zero;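 active means melting point raised past a set limit in the mean and every replicate; three in four hits are not shown here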
Target sequence (Q9HCT0 whole entry, looked up): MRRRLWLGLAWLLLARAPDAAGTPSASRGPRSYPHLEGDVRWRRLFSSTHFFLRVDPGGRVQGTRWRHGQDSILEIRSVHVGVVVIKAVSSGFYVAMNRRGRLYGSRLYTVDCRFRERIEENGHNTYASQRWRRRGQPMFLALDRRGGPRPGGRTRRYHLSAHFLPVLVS
UCH37 DUB inh – blocks the human deubiquitinase UCH37; Q9Y5K5; purified proteasome/UCH37, Ub-AMC cleavage fluorescence; inhibition, % (test concentration not listed); hit rate 0.33% among 330,000;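 active means mean of two replicates above 20%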;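 further: 0% = compound-free wells with enzyme and 100% = wells lacking proteasome; stock transfer was 100 nL into about 20 µL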
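Material: human UCH37 enzyme supplied as purified proteasome complex. Measure: % inhibition of Ub-AMC cleavage fluorescence. Medium: pH 7.4 Tris-HCl (50 mM) with ovalbumin, ATP-MgCl2, DTT. Times: 30 min preincubation with enzyme, 25 min cleavage at room temperature. Detection: AMC fluorescence intensity at 355/460 nm.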
LANA-H2B inh – blocks KSHV LANA binding to histone H2A/H2B | cell-free LANA-H2A/H2B peptide, fluorescence polarization | inhibition, % (concentration not given with the values) | hit rate 0.6% among 320,000; in the data active means inhibition mostly above about 10%, no sharp cut-off; inactive means mostly below about 6.7%;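 further: stock transfer was 7.5 nL into about 10 µL; 0% = median of vehicle wells and 100% = median of positive control wells; one replicate is shown; the record names a cut of 25% in any replicate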
E coli growth – blocks Escherichia coli growth. OD600, 23 h; hits give low values. hit rate 0.21% among 330,000. AID 1053175. OD600 absorbance (concentration not given with the values);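 active means OD600 absorbance below the run mean of sample wells minus 3.6 SD, in any replicate, cut at about 0.56 in these data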;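 further: stock transfer was 300 nL into about 60 µL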
* = called active by the depositor.

For O=C(COC(=O)c1ccccc1-n1cnnn1)c1ccc(Br)cc1 the results were Beta2AR agonist -6.8, ALR inh -11.0, HNF4A DNA FP 0.3, FGF22 binding inactive, UCH37 DUB inh 1.5, LANA-H2B inh 4.1 and E coli growth 0.669.
For CSc1nc(C)cc(SC(C(C)=O)C(=O)Nc2ccccc2)n1 (centres undefined) the results were Beta2AR agonist 2.7, ALR inh 92.7*, HNF4A DNA FP 0.5, UCH37 DUB inh 1.9, LANA-H2B inh 2.8 and E coli growth 0.653.
COc1ccccc1NS(=O)(=O)c1cccc(C(=O)NCC(c2cccs2)N(C)C)c1 (centres undefined) was read as Beta2AR agonist 0.1, HNF4A DNA FP 6.3, FGF22 binding inactive, UCH37 DUB inh 0.2 and E coli growth 0.695.
COC(=O)c1cc(NC(=O)c2ccccc2F)cc(C(=O)OC)c1 was read as Beta2AR agonist 2.0, ALR inh -4.0, HNF4A DNA FP 7.2, FGF22 binding inactive, UCH37 DUB inh 3.2, LANA-H2B inh 22.2* and E coli growth 0.632.
Cc1cc(C)n2nc(C(=O)N3CCCC(CNS(=O)(=O)c4cccs4)C3)cc2n1 (centres undefined) was read as Beta2AR agonist -1.3, ALR inh 3.4, HNF4A DNA FP 0.3, FGF22 binding inactive, UCH37 DUB inh -7.4, LANA-H2B inh -8.8 and E coli growth 0.684.
Screening CC(=O)Nc1ccc(S(=O)(=O)C(C#N)c2nc3ccccc3nc2NCCO)cc1 (centres undefined) returned Beta2AR agonist -6.1, ALR inh 8.2, HNF4A DNA FP -0.4, FGF22 binding inactive, UCH37 DUB inh inactive, LANA-H2B inh -1.5 and E coli growth 0.708.
`COc1cccc(CC(=O)Nn2c(C)nc3ccccc3c2=O)c1` gave Beta2AR agonist -3.2, ALR inh -2.8, HNF4A DNA FP -3.0, UCH37 DUB inh -0.2, LANA-H2B inh 1.4 and E coli growth 0.657.
`O=C(C1CCN(S(=O)(=O)Cc2ccccc2)CC1)N1CCCc2ccccc21` gave Beta2AR agonist 4.8, ALR inh -4.3, HNF4A DNA FP 4.0, UCH37 DUB inh 1.8, LANA-H2B inh 1.2 and E coli growth 0.712.
For CN(C)S(=O)(=O)c1ccc(C(=O)NCCSc2ccc(Br)cc2)cc1 the results were Beta2AR agonist 20.9, ALR inh -20.8, HNF4A DNA FP -0.1, FGF22 binding inactive, UCH37 DUB inh 2.2, LANA-H2B inh -4.9 and E coli growth 0.638.
Screening Cc1cc([N+](=O)[O-])ccc1NCc1cccc([N+](=O)[O-])c1 returned Beta2AR agonist -1.0, ALR inh -0.5, HNF4A DNA FP 0.7, UCH37 DUB inh 7.0, LANA-H2B inh -6.7 and E coli growth 0.708.
Screening COc1ccc(NC(=O)c2[nH]c(C)c(C(C)=O)c2C)cc1Cl returned Beta2AR agonist -1.9, ALR inh 0.2, HNF4A DNA FP 0.1, UCH37 DUB inh 4.5, LANA-H2B inh -0.7 and E coli growth 0.678.
Screening COc1ccc(S(=O)(=O)N2CCN(C)CC2)cc1NC(=O)c1ccccc1F returned Beta2AR agonist -1.4, ALR inh -0.2, HNF4A DNA FP -0.4, FGF22 binding inactive, UCH37 DUB inh -0.6, LANA-H2B inh 5.1 and E coli growth 0.663.

Overlap with the part before: 2 compounds, then new ones.
Screening COc1ccc(NC(=O)c2[nH]c(C)c(C(C)=O)c2C)cc1Cl returned Beta2AR agonist -1.9, ALR inh 0.2, HNF4A DNA FP 0.1, UCH37 DUB inh 4.5, LANA-H2B inh -0.7 and E coli growth 0.678.
Screening COc1ccc(S(=O)(=O)N2CCN(C)CC2)cc1NC(=O)c1ccccc1F returned Beta2AR agonist -1.4, ALR inh -0.2, HNF4A DNA FP -0.4, FGF22 binding inactive, UCH37 DUB inh -0.6, LANA-H2B inh 5.1 and E coli growth 0.663.
`CNS(=O)(=O)c1cccc(C(=O)NCC2(N3CCOCC3)CCCCC2)c1` gave Beta2AR agonist 6.5, ALR inh -2.8, HNF4A DNA FP -1.1, FGF22 binding inactive, UCH37 DUB inh 0.6, LANA-H2B inh -8.7 and E coli growth 0.685.
Screening Cc1ccc(C)n1-c1ccc(C(=O)NC2CCN(Cc3ccccc3)CC2)cc1 returned Beta2AR agonist 0.6, ALR inh -4.9, HNF4A DNA FP 6.8, UCH37 DUB inh 1.4, LANA-H2B inh -2.8 and E coli growth 0.67.
For O=c1c(-c2ccccc2)coc2c(CN3CCCC3)c(O)ccc12 the results were Beta2AR agonist -6.5, ALR inh -2.1, HNF4A DNA FP -0.1, UCH37 DUB inh inactive, LANA-H2B inh -3.3 and E coli growth 0.754.
O=c1[nH]c2nc(Cl)nc(Cl)c2[nH]1 was read as Beta2AR agonist -1.6, HNF4A DNA FP -0.9, FGF22 binding inactive, UCH37 DUB inh 6.0 and E coli growth 0.688.
`O=C(CSc1nnc(-c2ccncc2)o1)NCc1ccccc1Cl` gave Beta2AR agonist 8.9, ALR inh 1.3, HNF4A DNA FP 3.6, FGF22 binding inactive and LANA-H2B inh -3.6.
For CN(CC(=O)NC(=O)NC1CCCCC1)Cc1ccccc1 the results were Beta2AR agonist -7.2, ALR inh -12.6, HNF4A DNA FP -0.8, FGF22 binding inactive, UCH37 DUB inh 3.3, LANA-H2B inh -0.2 and E coli growth 0.713.
Screening CC(=O)Nc1ccc(-c2csc(Nc3ccc(Cl)cn3)n2)cc1 returned Beta2AR agonist -0.5, HNF4A DNA FP 0.6, FGF22 binding inactive, UCH37 DUB inh -1.6, LANA-H2B inh 1.7 and E coli growth 0.704.
CCc1nc2cc(C)nn2c2nc3ccccc3n12 was read as Beta2AR agonist -22.8, HNF4A DNA FP 2.3, UCH37 DUB inh -2.8, LANA-H2B inh -1.5 and E coli growth 0.703.
S=C(NCc1ccco1)Nc1ccc(Cl)c(Cl)c1 was read as Beta2AR agonist -10.6, ALR inh -0.6, HNF4A DNA FP 0.1, FGF22 binding inactive, UCH37 DUB inh 3.0, LANA-H2B inh -7.0 and E coli growth 0.47*.
For CC(=O)Nc1ccc(OCCOc2ccc(/C=C3/C(=N)N4C=CSC4=NC3=O)cc2)cc1 the results were Beta2AR agonist 0.3, ALR inh -8.3, HNF4A DNA FP 3.1, FGF22 binding inactive, UCH37 DUB inh 5.4, LANA-H2B inh 1.5 and E coli growth 0.697.
CSC1=C(C#N)C(c2ccccc2C)C(C#N)=C(N)N1 (centres undefined) was read as Beta2AR agonist 8.7, ALR inh 10.7, HNF4A DNA FP -1.7, UCH37 DUB inh -0.7, LANA-H2B inh 0.8 and E coli growth 0.669.
For COC(C[C@H](O)[C@H](C)[C@H](O)COCc1ccccc1)OC the results were Beta2AR agonist -5.6, HNF4A DNA FP -2.7, FGF22 binding inactive and UCH37 DUB inh 5.1.
C/C(Cn1cnc([N+](=O)[O-])n1)=N/NC(=O)COc1ccccc1Cl was read as Beta2AR agonist 2.2, ALR inh -81.4, HNF4A DNA FP -1.7, FGF22 binding inactive and LANA-H2B inh -1.4.
`O=C(Nc1ccccc1Cl)C1CCCN(S(=O)(=O)c2cccc3cccnc23)C1` (centres undefined) gave Beta2AR agonist 11.2, ALR inh -2.2, HNF4A DNA FP -4.3, FGF22 binding inactive, UCH37 DUB inh 6.2, LANA-H2B inh 6.6 and E coli growth 0.726.
COc1ccc(CNc2ncnc3cc(Cl)ccc23)cc1 was read as Beta2AR agonist -10.5, ALR inh -7.5, HNF4A DNA FP -3.0, FGF22 binding inactive, UCH37 DUB inh 3.2, LANA-H2B inh 0.8 and E coli growth 0.678.
For COc1ccc(/C=C2/C(=O)N(c3ccccc3)N=C2C)cc1OC the results were Beta2AR agonist 8.3, ALR inh 36.8, HNF4A DNA FP -0.7, FGF22 binding inactive and LANA-H2B inh 2.5.
Cc1cccc(NC(=O)CNC(=O)c2cccs2)n1 was read as Beta2AR agonist -12.0, HNF4A DNA FP 2.0, FGF22 binding inactive, UCH37 DUB inh 0.4, LANA-H2B inh -0.8 and E coli growth 0.619.
`Cc1cc(C)c(OCCn2ccnc2)c(C)c1` gave Beta2AR agonist 2.2, ALR inh 11.0, HNF4A DNA FP -0.4, FGF22 binding inactive, UCH37 DUB inh 1.9, LANA-H2B inh 7.3 and E coli growth 0.623.
Screening Cc1noc(NS(=O)(=O)c2ccc(NC(=O)c3ccc(F)cc3)cc2)c1C returned Beta2AR agonist 2.7, ALR inh -14.0, HNF4A DNA FP -2.2, FGF22 binding inactive, UCH37 DUB inh 4.6, LANA-H2B inh -5.1 and E coli growth 0.723.
Screening Cc1nn(C)cc1NC(=O)c1cc2nc(-c3ccco3)cc(C(F)(F)F)n2n1 returned Beta2AR agonist -7.7, ALR inh -63.0, HNF4A DNA FP 5.3, UCH37 DUB inh -8.3, LANA-H2B inh -3.3 and E coli growth 0.689.
For O=C(C1CC(=O)N(c2ccc3c(c2)OCCO3)C1)N1CCN(S(=O)(=O)c2ccccc2F)CC1 (centres undefined) the results were Beta2AR agonist 0.3, HNF4A DNA FP -2.4, FGF22 binding inactive, UCH37 DUB inh 3.4 and E coli growth 0.647.
CC(C)NC(=S)N=Nc1c(O)[nH]c2ccc([N+](=O)[O-])cc12 was read as Beta2AR agonist 8.5, ALR inh 5.3, HNF4A DNA FP -8.1, FGF22 binding inactive and LANA-H2B inh 3.8.
`CCCCC1=C(C(=O)OCC)C(C(=O)OCC)Oc2ccccc21` (centres undefined) gave Beta2AR agonist -4.2, HNF4A DNA FP 0.2, FGF22 binding inactive, UCH37 DUB inh 0.4 and E coli growth 0.689.
For N#CCc1ccc(C(=O)c2ccccc2F)s1 the results were Beta2AR agonist 10.7, ALR inh 55.5, HNF4A DNA FP 0.9, UCH37 DUB inh 4.8, LANA-H2B inh 0.4 and E coli growth 0.765.
Screening COCCn1c(=NC(=O)C2COc3ccccc3O2)sc2cc(S(N)(=O)=O)ccc21 (centres undefined) returned Beta2AR agonist -17.1, ALR inh -3.2, HNF4A DNA FP 4.3, FGF22 binding inactive and LANA-H2B inh -2.3.
`CN(C)c1ccc(NC(=O)COC(=O)c2ccc3c(c2)OCO3)cc1` gave Beta2AR agonist 2.3, ALR inh 21.8, HNF4A DNA FP 2.4, FGF22 binding inactive and LANA-H2B inh 13.4.
N#CCCSCc1ccc(C(=O)O)o1 was read as Beta2AR agonist 2.0, ALR inh 2.4, HNF4A DNA FP -2.6, UCH37 DUB inh 1.4, LANA-H2B inh 3.2 and E coli growth 0.712.
For CC(=O)Nc1cccc(-c2cc(C)c3cc4c(cc3n2)OCO4)c1 the results were Beta2AR agonist 12.9, HNF4A DNA FP -3.6, FGF22 binding inactive, UCH37 DUB inh -20.9 and E coli growth 0.646.
`CC(=O)c1sc(N/N=C\c2ccc(Br)cc2)nc1C` gave Beta2AR agonist -5.6, ALR inh 19.4, HNF4A DNA FP 37.6* and LANA-H2B inh -6.2.
Screening COc1cccc(NC(=S)N2C3CCCC2CC(NC(=O)C2CC2)C3)c1 (centres undefined) returned Beta2AR agonist -5.2, ALR inh -2.5, HNF4A DNA FP -1.1, FGF22 binding inactive and LANA-H2B inh -2.5.
For Cc1cccc(N(C)S(=O)(=O)c2ccc(-c3cc(C)no3)s2)c1 the results were Beta2AR agonist 29.1, ALR inh -1.8, HNF4A DNA FP 4.2, FGF22 binding inactive and LANA-H2B inh 1.4.
For COC(=O)c1cc(-c2ccccc2)n[nH]1 the results were Beta2AR agonist 11.1, ALR inh -6.9, HNF4A DNA FP 4.9, UCH37 DUB inh 0.7, LANA-H2B inh 6.6 and E coli growth 0.666.
Cc1ccc(S(=O)(=O)N2CCC(C(=O)NCCCN3CCCCCC3)CC2)cc1 was read as Beta2AR agonist -3.8, ALR inh -1.7, HNF4A DNA FP 8.0, UCH37 DUB inh 3.6, LANA-H2B inh -0.9 and E coli growth 0.662.
Screening COc1ccc2cc(C(=O)C3CCCN(C(=O)c4cnccn4)C3)ccc2c1 (centres undefined) returned Beta2AR agonist 3.2, HNF4A DNA FP 5.1, FGF22 binding inactive, UCH37 DUB inh -364.0, LANA-H2B inh -4.2 and E coli growth 0.63.
Screening CSC1=NCCN1S(=O)(=O)c1ccc(Cl)cc1 returned Beta2AR agonist -5.4, ALR inh -24.8, HNF4A DNA FP 1.7, FGF22 binding inactive, UCH37 DUB inh 0.1, LANA-H2B inh -7.8 and E coli growth 0.629.

These rows are one share of the data, so the mix of outcomes need not match the whole.
